Screening results as filed in PubChem BioAssay.
VACV mCherry inh – inhibitors of vaccinia virus infection (mCherry reporter signal) | Vaccinia virus mCherry reporter infection, fluorescence; about a quarter of the inactives have no number | Potency, µM (doses to about 36.5 µM), without a hit: top-dose activity change, negative = inhibition, hits mostly inhibitors | actives 0.63% (n = 310,000); active = well fitted inhibition curve with a large enough effect; inconclusive = small, poorly fitted or top-dose-only effect; inactive = no such curve, though single readings can be large or run the other way; tested in A549 cells; note: nearly all actives have a fitted effect of over 35% in size; inactives centre near -10
Vaccinia Venus – inhibitors of vaccinia virus (Venus reporter); Vaccinia virus Venus reporter expression, fluorescence; Potency, µM (doses to about 36.5 µM), for inactives: at the top dose activity change, negative = inhibition, actives largely listed as inhibitors; actives 0.46% (n = 330,000); active means well fitted inhibition curve with a large enough effect; inconclusive means small, poorly fitted or top-dose-only effect; inactive means no such curve, though single readings can be large or run the other way; tested in A549 cells; note: nearly all actives have a fitted effect of over 30% in size; inactives centre near -10
* marks the source's active call; other numbers are inactive results; i = inactive; ? = inconclusive; . = not tested or not shown; [ ] = dose if it differs, or a comment. % is set by controls: 0 for no effect and ±100 for the full control effect; potency is the fitted concentration of half-maximal effect. Rows are unselected (roughly 0.88% active in at least one column).

# | Molecule | VACV mCherry inh | Vaccinia Venus
1 | Cc1cc(C(=O)Nc2cccc([N+](=O)[O-])c2)c(C)o1 | i | -20.0%
2 | COC(=O)C1=C(C)Nc2ncnn2C1c1ccc(C)o1 (centres undefined) | -3.2% | -2.8%
3 | CC1(C)CC(=O)C=C(Nc2ccc(O)cc2)C1 | -12.2% | -0.3%
4 | COc1ccc(S(=O)(=O)N(C)C)cc1NC(=O)Cc1ccc(S(=O)(=O)N2CCOCC2)s1 | -24.3% | -20.6%
5 | CCC1(CC)NC(=O)N(CC(=O)OC(C)C(=O)Nc2ccc(S(N)(=O)=O)cc2)C1=O (centres undefined) | i | -5.8%
6 | CCCN1C(=O)c2cc(C(=O)NC3CCCC3)ccc2C1O (centres undefined) | -3.3% | -16.0%
7 | Cc1cc(=O)[nH]c(Nc2cccc(C(F)(F)F)c2)n1 | . | -22.3%
8 | CC(C)C(=O)NC(=O)[C@@H]1CCCN1C(=O)/C=C/c1ccccc1 | i | -0.8%
9 | COCCn1c(=O)[nH]c2cc(C(=O)N3CCN(c4cccc(C)c4C)CC3)ccc2c1=O | ? | -13.9%
10 | Clc1ccc(-c2cccc3nccn23)c(Cl)c1 | -6.9% | 0.1%
11 | COc1ccc(Cn2c(=S)[nH]c3cc(C(=O)NCCCN4CCOCC4)ccc3c2=O)cc1 | -18.3% | -12.1%
12 | Cc1ccc(CN2CCN(Cc3cccn3-c3ccccn3)CC2CCO)o1 (centres undefined) | -25.1% | 8.9%
13 | Cc1cccc(N2CCN(C(=O)c3ccncc3)CC2)c1C | ? | ?
14 | COc1ccc(OC)c(C2CC(=O)N3CN(c4cccc(Cl)c4)CSC3=C2C#N)c1 (centres undefined) | i | -10.0%
15 | Cc1ccc(Cl)cc1N1CCN(C(=O)c2ccc3c(c2)N(Cc2ccccc2)CCS3)CC1 | -14.7% | -12.9%
16 | COc1ccc(-c2ccc(C(=O)NCc3ccccc3)c3occc23)c(C)c1 | 15.8% | -8.6%
17 | Cc1ccc(Cn2c(C(=O)O)c(CNCCc3cccs3)c3ccc(C)cc32)cc1 | 1.0% | -9.0%
18 | O=C(NCc1ccco1)C1CCCN(S(=O)(=O)c2ccc(-n3cnnn3)cc2)C1 (centres undefined) | -11.8% | -4.8%
19 | CCOc1cc(-c2nnc(SCC(=O)NC3CCCC3)nc2-c2ccc(OC)c(OCC)c2)ccc1OC | -17.0% | -17.9%
20 | COc1ccc(NC(=O)CN(C)C(=O)c2cc3c(cc2Cl)N2CCCCCC2=NS3(=O)=O)cc1 | -13.1% | -15.9%
21 | Cc1ccc(NC(=O)Cn2cnc3c2c(=O)n(C)c(=O)n3C)cc1C | 2.8% | 10.7%
22 | Cc1ccc2c(C)c(C(=O)N3CCC(O)(c4ccccc4)CC3)oc2c1C | -22.9% | -23.4%
23 | CCC(=O)Nc1ccc(S(=O)(=O)Nc2nccs2)cc1 | -2.7% | -12.4%
24 | CCOC(=O)c1ccc(NC(=O)C(Cc2ccccc2)N2Cc3ccccc3C2=O)cc1 (centres undefined) | i | -11.6%
25 | COc1ccc(CCN2C(=O)N(c3cccc(OC)c3)C(=O)C2CC(=O)Nc2ccccc2)cc1 (centres undefined) | -9.3% | -9.9%
26 | COC(=O)C1=C(c2ccc(Cl)c(C(F)(F)F)c2)C[C@@H]2CC[C@H]1N2C(=O)N1CCOCC1 | -11.4% | ?
27 | C/C(=N/NS(=O)(=O)c1ccc(C)cc1C)c1c[nH]c2ccccc12 | 5.01µM* | -24.0%
28 | Cc1cc(S(=O)(=O)N2CCOCC2)ccc1OCC(=O)Nc1ccc(F)c(Cl)c1 | -13.7% | -4.3%
29 | CCN(CC)C(=O)c1ncn(C)c1C(=O)N(CC)CC | -14.4% | -8.2%
30 | CCC1(C(=O)c2ccccc2)C2c3cc(Br)ccc3OC(=O)C21C(=O)N1CCOCC1 (centres undefined) | -9.1% | -3.8%

The list goes on (2 carried over from the part before).
# | Molecule | VACV mCherry inh | Vaccinia Venus
29 | CCN(CC)C(=O)c1ncn(C)c1C(=O)N(CC)CC | -14.4% | -8.2%
30 | CCC1(C(=O)c2ccccc2)C2c3cc(Br)ccc3OC(=O)C21C(=O)N1CCOCC1 (centres undefined) | -9.1% | -3.8%
31 | COc1ccc(-c2nnc3ccc(SCC(=O)Nc4cc(C)on4)nn23)cc1OC | i | 3.5%
32 | O=C(NCC(c1ccco1)N1CCCC1)c1ccccc1Sc1ccc(C(F)(F)F)cc1[N+](=O)[O-] (centres undefined) | -13.1% | -19.8%
33 | COc1cc(N)c2ncccc2c1OC | ? | 6.5%
34 | COc1ccc2nc(/C=N/NC(=O)[C@H](CCSC)NC(=O)OC(C)(C)C)ccc2c1 | i | -25.3%
35 | Cc1nn(C)cc1C1C(C#N)=C(N)N(c2ccc(F)c([N+](=O)[O-])c2)C2=C1C(=O)CCC2 (centres undefined) | 10µM* | ?
36 | O=C(NNc1nc(-c2ccccc2)cs1)c1ccco1 | i | -15.4%
37 | CCOC(=O)c1ccc(CN(Cc2ccc(F)cc2)S(=O)(=O)c2ccc(F)c(C(=O)Nc3cc(Cl)ccc3OC)c2)cc1 | -9.9% | -9.9%
38 | CCCCOc1ccc(NC(=O)C(=O)NCCC2=CCCCC2)cc1 | i | -6.3%
39 | Cc1nnc2n(-c3ccccc3)c(=O)c3c4c(sc3n12)COC(C)(C)C4 | . | -21.6%
40 | Cc1ccc(S(=O)(=O)NCCc2csc(-c3cccc(F)c3)n2)cc1 | -3.4% | -13.9%
41 | CCN(CC)S(=O)(=O)c1ccc(C(=O)NNC(=O)c2cccs2)cc1 | i | -15.1%
42 | CCOC(=O)C1CCCN(CC(O)COC(c2ccccc2)c2ccccc2)C1 (centres undefined) | 5.5% | -2.7%
43 | CCOc1ccc(C(=O)n2cc(C(=O)OC)c3ccccc32)cc1OCC | -9.3% | -4.5%
44 | O=C(NCc1ccccc1)c1c(F)c(F)c(F)c(F)c1F | ? | -25.8%
45 | COC(=O)CSc1nnc(CNC(=O)c2ccccc2F)n1-c1ccccc1 | 11.8% | 1.0%
46 | Oc1cc(O)c2c(c1)O[C@H](c1ccc(O)c(O)c1)[C@@H](O)C2 | i | -13.0%
47 | O=C(CCSCc1cccc(Cl)c1)NC1CCCC1 | -13.3% | -4.7%
48 | O=C(CCc1nc2ccccc2s1)c1ccccc1 | -1.1% | -12.7%
49 | COc1ccc(NC(=O)c2oc3ccccc3c2NC(=O)c2cc3ccccc3o2)c(OC)c1 | 2.6% | -1.8%
50 | O=C(NCc1ccco1)/C(=C/c1cccc([N+](=O)[O-])c1)NC(=O)c1ccco1 | i | -11.4%
51 | CCOc1ccc(NC(=O)CN(C)C(=O)c2ccc(OCc3ccccc3)c(OC)c2)cc1OCC | -3.9% | -24.4%
52 | Cc1ccc2c(=O)cc(C(=O)N(Cc3ccc(C(C)(C)C)cc3)C3CCS(=O)(=O)C3)oc2c1 (centres undefined) | -15.9% | -14.3%
53 | Cc1c(C(c2ccc(O)cc2)c2c(C)n(C)n(-c3ccccc3)c2=O)c(=O)n(-c2ccccc2)n1C | -3.4% | -5.0%
54 | CC(C)COP(=O)(c1ccc(N(C)C)cc1)C(Nc1ccccc1)c1ccccc1 (centres undefined) | i | -15.5%
55 | O=C(C1=C[C@H](c2coc3ccccc3c2=O)C[C@H](OCc2ccc(CO)cc2)O1)N1CCN(Cc2ccccc2)CC1 | i | -22.6%
56 | Clc1nccc(NCc2ccccc2)n1 | -11.7% | -23.6%
57 | Cc1ccccc1NC(=O)Cn1cnc2c(oc3nc4c(cc32)COC(C)(C)C4)c1=O | ? | -21.9%
58 | O=C(COc1ccc(Cl)cc1)NNC(=O)c1cccnc1 | 14.3% | 7.4%
59 | O=C(NC1CC1)c1cccc(NC(=O)C2CCN(S(=O)(=O)c3ccccc3C(F)(F)F)CC2)c1 | 17.1% | -14.0%
60 | COC(=O)c1c(NC(=O)C(C)C)sc2c1CCN(Cc1ccccc1)C2 | ? | -10.5%
61 | NS(=O)(=O)c1ccc(CCNC(=O)c2cc3ccccc3oc2=O)cc1 | i | -4.7%
62 | CC(C)OCCCNC(=O)Cc1ccc(NC(=O)N2CCCCc3ccccc32)cc1 | -6.4% | -4.1%
63 | Cc1ccc(C2=NS(=O)(=O)N(C)C(C(=O)NC3CCCC3)=C2)cc1 | 27.8% | -7.7%
64 | CC(C)c1nc2sc3c(=O)n(N)cnc3c2c2c1COC(C)(C)C2 | -1.1% | -11.4%
65 | O=S(=O)(c1ccc(F)cc1)N1CCN(c2ncccn2)CC1 | -11.7% | -12.1%
66 | Cc1cccc(-c2nnc(SCCOc3ccc4c(C)cc(=O)oc4c3)o2)c1 | . | -3.9%
67 | Cc1nc(SCC(=O)NC(=O)NCc2ccco2)nc(C)c1C | -15.0% | -9.2%
68 | CC(=O)N1CCOc2ccc(S(=O)(=O)N3C(C)CCCC3C)cc21 (centres undefined) | i[7.34 µM] | 0.0%[7.34 µM]
69 | CC(C)N(C(=O)CSc1nnc(Cc2ccc3c(c2)OCO3)n1C)C(C)C | i | -5.0%
70 | Cc1ccc(C(=O)Oc2ccc([N+](=O)[O-])cc2)cc1S(=O)(=O)N1CCCCCC1 | i | -10.5%
71 | CCCCOc1ccc(C(=O)N/C(=C/C=C/c2ccccc2)C(=O)NCCO)cc1 | i | -9.2%
72 | O=C(Nc1ccc(OCc2ccccc2)cc1)c1cccnc1 | i | -15.8%
73 | c1ccc(-c2cc(N3CCCCC3)nc(-c3ccccc3)n2)cc1 | i | 0.0%
74 | CCOc1cc(/C=C(\C#N)C(=O)Nc2ccc(OC)cc2)ccc1OCc1cc(=O)n2nc(CC)sc2n1 | 0.7% | 2.1%
75 | O=C(c1cc2nc(-c3ccc(F)cc3)cc(C(F)(F)F)n2n1)N1CCCCC1c1cccnc1 (centres undefined) | ? | ?
76 | CC(C)C(=O)Nc1cccc(S(=O)(=O)NC2=NCCC2)c1 | i | -9.4%
77 | Cc1c(C(=O)O)sc(S(=O)(=O)N2CCN(C(=O)Cc3ccc(Cl)cc3)CC2)c1C(=O)O | -9.8% | 0.0%
78 | Cc1ccc(NC(=O)CN2CCN(c3ccccn3)CC2)cc1S(=O)(=O)N(C)C | -15.5% | -9.9%
79 | O=C(Nc1ccccn1)[C@@H]1CCC(=O)N1C(=O)OCc1ccccc1 | . | -8.4%
80 | CN1CCc2c(OCC(=O)N3CCCc4ccccc43)cccc2C1=O | -19.6% | -14.3%
81 | CCN(CC(=O)Nc1ccccc1C(F)(F)F)CC(=O)c1[nH]c(C)c(C(C)=O)c1C | -17.8% | -15.6%
82 | CCOc1cc(N2CCOCC2)c(OCC)cc1NC(=O)COc1ccccc1[N+](=O)[O-] | i | -3.2%
83 | COc1ccc(-c2noc(CNC(=O)c3ccoc3C)n2)cc1OC | -1.8% | -8.6%
84 | CCOC(=O)N1CCN(c2c(NCc3cccs3)c(=O)c2=O)CC1 | -12.4% | -14.4%
85 | CC(C)(C)CC(=O)NCC(c1ccc2c(c1)OCO2)N1CCOCC1 (centres undefined) | 0.4% | 5.9%
86 | COc1cc(C(=O)Nc2cc(C)ccc2C)ccc1OCc1c(C)noc1C | i | -15.0%
87 | COc1ccccc1NS(=O)(=O)c1cccc(-n2c(O)c(C=Nc3ccccc3C(=O)O)c3ccccc3c2=O)c1 | ? | -15.8%
88 | Cc1ccc2[nH]c(=O)c3cc(C(=O)N(C)C4CCCCC4)sc3c2c1 | i | -13.1%
89 | CC(C)(C)OC(=O)[C@H](Cc1ccccc1)NC(=O)c1ncn2c1c(=O)[nH]c1ccc(Br)cc12 | -2.6% | ?
90 | CN(C)c1ccc(C(CNS(=O)(=O)c2ccc(F)cc2)c2c[nH]c3ccccc23)cc1 (centres undefined) | i | -28.3%

More compounds follow:
# | Molecule | VACV mCherry inh | Vaccinia Venus
91 | O=C(CSc1cn(CCNC(=O)c2cccc(C(F)(F)F)c2)c2ccccc12)Nc1ccc2c(c1)OCCO2 | ? | ?
92 | CCNC(=O)NNC(=O)C1CC(c2cccnc2)=NO1 (centres undefined) | -12.3% | -3.8%
93 | Cn1nc(C(F)(F)F)c(-c2ccc(F)cc2)c1NC(=O)c1ccco1 | -1.3% | -9.4%
94 | COc1cc(NS(=O)(=O)c2ccc(OC)c(OC)c2)cc(OC)c1 | i | -13.4%
95 | [O-][n+]1onc2c1CCc1[nH]c(-c3ccccc3)nc1-2 | 15.8µM* | ?
96 | CC(C)(C)C(=O)NC1CC2CCCC(C1)N2C(=O)Nc1ccccc1F (centres undefined) | i | -4.6%
97 | CN(C)CCNC(=O)c1ccc(COCC(F)(F)F)cc1 | -14.4% | 1.0%
98 | COc1ccc(-c2cc(C(=O)O)no2)cc1 | i | 15.1%
99 | Cc1cccc(C)c1-n1c(C)cc(/C=N\Nc2ccc([N+](=O)[O-])cn2)c1C | . | ?
100 | Cc1ccc(NC(=O)c2cccnc2C(=O)O)nc1 | i | -1.9%
101 | Cc1cc(C)n(-c2ccc(C(=O)N3CCN(S(=O)(=O)c4ccc(OC(F)(F)F)cc4)CC3)cc2)n1 | ? | -28.3%
102 | COCC(=O)Nc1cc(OC)ccc1OC | -16.4% | -10.8%
103 | CC(C)Cn1cc(C(=O)NCCCN2CCC(C)CC2)c2c3ccccc3n(C)c2c1=O | 11.7% | 4.1%
104 | COC(=O)c1cc(NC(=O)Cn2c(=O)cnc3ccccc32)cc(C(=O)OC)c1 | -14.2% | -6.1%
105 | O=C(c1cccnc1)N1CCN(c2ccc(Cl)cc2)CC1 | -26.6% | -10.8%
106 | CC(C)NS(=O)(=O)c1ccc(NC(=O)NC2CCCCC2)cc1 | -3.9% | -24.3%
107 | O=C(NC1CCCCC1)c1cc2ccccc2cc1O | ? | -20.2%
108 | Cc1ccc(S(=O)(=O)/N=C(/Nc2ccc3[nH]c(=O)[nH]c3c2)c2ccccc2)cc1 | i | -6.0%
